Menin-MLL FL inh – displaces fluorescein MLL peptide from human menin; 290,000 tested, under 10 active; FP activity change, % at 61.4 µM; AID 1766; Fluorescence polarization, fluorescein-MLL peptide displacement from menin; inconclusive = falling polarisation curve, or a change in total fluorescence; inactive = total fluorescence flat and polarisation flat or rising; no compound was filed as active; the % refers to the polarisation; negative = inhibition;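 also: % of control where 0% means no effect; inhibitors lower the polarisation; unlabelled MLL peptide was the positive control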
TRPML1 blocker – inhibitors of human TRPML1 channel | Q9GZU1 | TRPML1-inducible cells, Ca2+ dye fluorescence, FDSS; hits give low values; inhibition of EC80 agonist-evoked calcium signal | activity change, negative = inhibition, % (test concentration not listed) | 390,000 tested, 0.02% active; in the data active means activity change below about -50%; inconclusive means about -30% to -50%; inactive means above about -30%;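 also: stimulus is agonist 54-4 at its EC80 concentration; % is scaled to controls: 0 for no effect and ±100 for the full control effect; compound concentration not given in the record; the text of the record puts the active cut at -80%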
Target sequence (Q9GZU1 whole entry, looked up): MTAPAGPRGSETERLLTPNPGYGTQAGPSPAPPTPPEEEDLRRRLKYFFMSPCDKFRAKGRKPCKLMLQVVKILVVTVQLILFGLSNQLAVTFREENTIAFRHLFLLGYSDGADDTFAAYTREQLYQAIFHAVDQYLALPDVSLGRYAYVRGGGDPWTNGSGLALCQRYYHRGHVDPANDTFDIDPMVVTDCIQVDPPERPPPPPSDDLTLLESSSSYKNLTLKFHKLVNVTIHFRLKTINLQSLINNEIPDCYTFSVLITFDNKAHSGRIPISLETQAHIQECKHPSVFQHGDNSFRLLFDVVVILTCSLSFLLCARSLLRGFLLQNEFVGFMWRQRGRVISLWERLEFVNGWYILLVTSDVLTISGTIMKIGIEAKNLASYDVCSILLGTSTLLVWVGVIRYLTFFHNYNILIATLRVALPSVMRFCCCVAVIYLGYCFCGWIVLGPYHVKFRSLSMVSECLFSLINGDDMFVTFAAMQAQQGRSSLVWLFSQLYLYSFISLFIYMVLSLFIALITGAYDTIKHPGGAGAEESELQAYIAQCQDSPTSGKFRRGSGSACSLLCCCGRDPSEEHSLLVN
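Tet-induced TRPML1-DL cells loaded with Ca8 no-wash calcium dye were read kinetically on FDSS. Compound addition was followed by EC80 agonist 54-4 (4 uM final); inhibition was read over 110 s.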
ClpP mod – qHTS Assay for Activators of ClpP; ATP-dependent Clp protease proteolytic subunit (Bacillus subtilis (strain 168)), P80244; purified B. subtilis ClpP, FRET peptide cleavage, 20 min; Potency, µM (titrated, usually from 57.5 µM), for inactives: at the top dose activity change, negative = active; 340,000 tested, 1.9% active; AID 651965, 2013; active = well fitted falling curve with a large enough effect; inconclusive = small, poorly fitted or top-dose-only effect; inactive = no such curve, though single readings can be large or run the other way; also: potency is read from the fitted curve at half-maximal effect; the source files actives as falling curves though it sought activators and does not explain the sign; nearly all actives have a fitted effect of over 65% in size; many hits overshoot -100%
Target sequence (P80244 whole entry, looked up): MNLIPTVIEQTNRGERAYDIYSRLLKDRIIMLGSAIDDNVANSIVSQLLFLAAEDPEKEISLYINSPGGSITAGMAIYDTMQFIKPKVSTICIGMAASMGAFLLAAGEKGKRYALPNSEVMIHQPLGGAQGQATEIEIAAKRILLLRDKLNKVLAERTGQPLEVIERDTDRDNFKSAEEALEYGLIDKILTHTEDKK
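FRET quenching reversal measured ClpP activation: 10 microg/mL B. subtilis ClpP at pH 8 with the FRET-FV decapeptide, read at 430 nm after 320 nm excitation. The 20-min minus 0-min signal was scaled between DMSO/no-enzyme wells and ADEP (5.8 microM final).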
gsp antagonist – gsp mutant antagonism; 340,000 tested, 0.4% active; gsp-mutant cells, cAMP HTRF, 30 min; control for the full effect not named in the record; AID 624288; Potency, µM (doses to about 76.9 µM), inactives show top-dose activity change, negative = inhibition, most hits filed as inhibitors; active = falling curve of any shape with a large fitted effect; inconclusive = falling curve, mostly with a smaller effect; inactive = flat or rising curve; cell line not stated here;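 also: intracellular cAMP measured with PDE inhibitor Ro 20-1724 present during compound exposure; potency is read from the fitted curve at half-maximal effect; % is scaled to controls: 0 for no effect and ±100 for the full control effect; nearly all actives have a fitted effect of over 65% in size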
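Cells, 2000/well, grown 16–24 h in DMEM 10% FBS with 0.5 mg/ml G418, then compounds plus […] (300 uM addition stock), 30 min at 37C. cAMP read by HTRF (cAMP-d2 and anti-cAMP antibody-K in lysis buffer) after 30 min RT.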
Sfp PPTase inh – Sfp phosphopantetheinyl transferase inhibition | Q9F4F7 | Biochemical Sfp PPTase activity, qHTS | Potency, µM, for inactives: max response, negative = inhibition, most hits filed as inhibitors | 310,000 tested, 3.5% active | AID 1490; active = well fitted inhibition curve with a large enough effect; inconclusive = small, poorly fitted or top-dose-only effect, or another doubt; inactive = no such curve, though single readings can be large or run the other way;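 also: the enzyme is Sfp with the accession as filed and its product quenches rhodamine fluorescence; potency is read from the fitted curve at half-maximal effect; 0% = enzyme reaction without inhibitor and -100% = no enzyme wells; top concentration of the series not given in the record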
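Fluorescence-quenching assay with 15 nM Sfp, 5 uM rhodamine-CoA and 12.5 uM BHQ-2-labelled ybbR peptide in pH 7.6 Hepes/MgCl2 buffer. Enzyme was pre-incubated with compound for 15 min at room temperature. Rate was taken from the 30-min fluorescence change (525/598 nm).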
TRPV1 potentiator – human TRPV1 potentiation; Q8NER1; TRPV1-expressing cells, Fluo-8 calcium influx, capsaicin EC20 potentiation; host cell line not named in the record; control for the full effect not named in the record; potentiation, % at 8.33 µM; 320,000 tested, 0.02% active; AID 540277; active means potentiation above 80%; inconclusive means 30% to 80%; inactive means below 30%; also: 0% is about no effect
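TRPV1-expressing cells were cultured overnight at 35.5C and loaded with Fluo-8 calcium dye for 40 to 90 min at room temperature. After a 10 s baseline, compound was added and calcium influx was read kinetically for 3 min (ex 480/em 520 nm).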
gsp agonist – gsp mutant agonism; AID 624287; 340,000 tested, 0.13% active; Potency, µM (highest dose often 76.9 µM), for the others: at the highest dose activation (cAMP increase), hits mostly activators; gsp mutant cells, cAMP HTRF, 30 min; control for the full effect not named in the record; active = well fitted activation curve with a large enough effect; inconclusive = small, poorly fitted or top-dose-only effect, or another doubt; inactive = no such curve, though single readings can be large or run the other way; cell line not stated here;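 also: phosphodiesterase inhibitor Ro 20-1724 added with compounds to block cAMP breakdown; potency is read from the fitted curve at half-maximal effect; nearly all actives have a fitted effect of over 60% in size; about a fifth of the inactives were tested at one dose only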
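Cells in DMEM/10% FBS with G418 were pretreated with compounds in DMSO plus […] (300 uM stock) for 30 min at 37C. cAMP was measured by HTRF (cAMP-d2 plus anti-cAMP antibody-K) after 30 min at room temperature.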
The depositor's hits bear a star; ? = inconclusive; / = no result given; [ ] = remark or other dose. Compounds as they come, and some 4.9% of all compounds hit somewhere here.

SMILES	Menin-MLL FL inh	TRPML1 blocker	ClpP mod	gsp antagonist	Sfp PPTase inh	TRPV1 potentiator	gsp agonist
CN(C)C(C)(C)C#CC(O)(c1ccccc1)c1ccccc1	-2.2	11	0.3%	10%	14%	-15	-42%[inhibitor]
CCOc1ccc(CCN2C(=S)N([C@@H](CC(C)C)CN3CCCC3CN3C(=S)NC[C@@H]3Cc3ccc(O)cc3)C[C@@H]2Cc2ccc(O)cc2)cc1 (stereo not given in full)	/	2	0.3%	-9%	/	/	/
CCOC(=O)N1CCN(C(c2cccc(OC)c2)c2sc3nc(C)nn3c2O)CC1 (stereo not given)	3.6	-1	0.8%	-7%	16%	1	-6%
Cc1cc(C)n(-c2ccc3nnc(C)n3n2)n1	0.2	62	0.4%	2%	28%	0	9%[15.4 µM]
CCOc1ccc(OCC)c(NC(=O)CCCN2C(=O)c3cccnc3C2=O)c1	1.1	8	-1.7%	2%	16%	5	-7%
Cc1ccccc1NC(=O)Cn1c(CCC(=O)O)ccc1-c1cccs1	0.8	-6	/	-19%	-21%	-9	28%[15.4 µM]
CS(=O)(=O)N(Cc1ccccc1)c1ccc(C(=O)NCCSCc2ccco2)cc1	3.0	5	-0.9%	-3%	28µM*	29	-28%
CCOC=C1SC(=S)N(c2ccccc2OC)C1=O	/	-5	1.0%	/	/	/	?
Cc1c(N/C=C/C(=O)c2ccc(Cl)cc2)c(=O)n(-c2ccccc2)n1C	4.0	2	-10%	-2%	4%	9	-16%
CCCn1c(SC2C(=O)CC(C)(C)CC2=O)nc2c1c(=O)n(C)c(=O)n2C	1.0	-18	1.5%	6%	-13%	4	14%
CC(C)OP(=O)(OC(C)C)C1(O)C(=O)Nc2ccccc21 (stereo not given)	4.1	-2	0.3%	-3%	12%	-8	-2%
NC(=O)CC(NC(=O)Cc1ccc(Cl)cc1)c1ccc(N2CCN(c3ccccn3)CC2)c([N+](=O)[O-])c1 (stereo not given)	-0.1	-1	-0.5%	7%	10%	-1	/
Cc1ccc(-n2c(-c3ccc(Cl)cc3)n[nH]c2=S)c(C)c1	1.1	3	-19%	?	-8%	-5	?
N#Cc1ncc(C(F)(F)F)cc1Oc1cccnc1	6.6	-17	/	5%	5%	-4	8%
O=C(CN1c2cccc3cccc(c23)S1(=O)=O)Nc1ccccc1	4.9	-4	/	/	-1%	20	12%[15.4 µM]
Cc1nc(N2CCN(C(=O)c3ccco3)CC2)[nH]c(=O)c1C	0.6	-20	/	-15%	-4%	30	19%
CC(=O)OC[C@H]1O[C@H](C/C=N/O[C@@H](C)c2cn([C@H](CO)Cc3ccccc3)nn2)C=C[C@@H]1OC(C)=O	1.5	/	/	/	19%	?	/
COc1ccc(NC(=O)c2sc3nc(N4CCOCC4)c4c(c3c2N)CC(C)(C)OC4)cc1	-2.2	-1	?	?	2%	2	-68%[inhibitor]
CN1CCN(c2ccc(NC(=O)c3ccc4c(c3)[nH]c(=O)n4Cc3ccc(F)cc3)cc2)CC1	1.5	-3	-1.9%	3%	-13%	-1	-15%
CCN(c1ccccc1)S(=O)(=O)c1ccc(OC)c(NC(=O)c2ccccc2OC)c1	/	79	?	-10%	/	22	-26%
CN(C)CCCNC(=S)Nc1ccc(Oc2ccccc2)cc1	-1.4	37	-3.5%	17%	0%	2	-6%[15.4 µM]
CN(C1CCCCC1)S(=O)(=O)c1ccc2[nH]c(=O)oc2c1	-0.4	8	/	3%	0%	-3	-11%[15.4 µM]
O=C(CCCn1c(SCC(=O)c2ccc(F)cc2)nc2ccccc2c1=O)NCc1ccccc1	1.0	5	1.1%	-13%	1%	11	-3%
COc1cccc(C(=O)CSc2nnnn2C)c1	1.7	-1	-1.3%	8%	50µM*	7	0%
C=CCN(CC=C)S(=O)(=O)c1ccc(C(=O)Nc2nnc(CSC)o2)cc1	1.3	19	0.4%	-7%	21%	4	?
C/C(=N\NC(=O)c1nc2ccccn2c1C)c1ccc2c(c1)OCO2	7.2	13	-2.5%	3%	-11%	10	10%
O=C(CN1CCCCCC1)Nc1ccc([N+](=O)[O-])cc1Cl	-4.7	2	10µM*	-3%	-6%	-18	3%[15.4 µM]
CCOc1cc(N2CCOCC2)c(OCC)cc1NC(=O)COC(=O)CCOc1cc(C)ccc1C	/	33	-0.8%	-4%	/	3	-7%[15.4 µM]
Cc1ccc2c(c1)-c1c(cnn1CC(=O)Nc1ccccc1N1CCN(C)CC1)CO2	7.0	50	-2.8%	2%	-8%	-8	?
C/C=C/c1ccc(OC(C)=O)c(OC)c1	0.1	2	-0.8%	11%	24%	14	/
COc1ccc2[nH]c(C)c(CCN3C(=O)C4C5C=CC(C5)C4C3=O)c2c1 (stereo not given)	1.6	-3	0.7%	-17%	23%	14	?
COc1ccc(F)cc1CN1CCN(C(=O)CCC(=O)Nc2nnc(C3CCCCC3)s2)CC1	/	15	/	-5%	1%	-7	3%
COc1ccc(O)c(/C=N/NC(=O)c2ccc(OCc3cccc(Br)c3)cc2)c1	6.0	0	-1.6%	4%	-7%	5	-1%
Cc1ccc(C)c(/C=C(\C(=O)O)c2ccc(S(=O)(=O)N3CCCCC3)s2)c1	7.1	-7	/	/	2%	1	1%[15.4 µM]
CCN(CC)S(=O)(=O)c1ccc(C)c(NC(=S)Nc2cccc(S(=O)(=O)N3CCCCCC3)c2)c1	2.6	-19	-2.9%	-8%	5%	-1	-31%[inhibitor]
O=C(/C=C/c1ccco1)NC(=S)Nc1ccccc1N1CCOCC1	?	7	1.9%	-12%	-1%	-12	-49%[inhibitor]
Cc1cccnc1NC(=O)CN1C(=O)NC(C)(c2ccc3ccccc3c2)C1=O (stereo not given)	/	-1	-2.4%	15%	/	?	-2%[15.4 µM]
CCC(Oc1ccc(Br)cc1)C(=O)N1CCN(c2ncccn2)CC1 (stereo not given)	/	3	?	-1%	1%	-24	-6%[15.4 µM]
COc1ccc(NS(=O)(=O)c2cc(NC(=O)CCSc3ccccc3)ccc2OC)cc1	6.9	10	-1.4%	-17%	12%	6	-14%
CCOc1ccc(C(=O)NC(=S)Nc2cc(C)ccn2)cc1[N+](=O)[O-]	-1.4	-11	2.2%	15%	10%	-3	0%
CCc1ccc(OCC(=O)NNCC(=O)Nc2ccc(OC)cc2)cc1	/	6	?	-1%	/	1	-31%[inhibitor]
COc1cc2c(cc1NC(=O)CSc1nnc(Cc3cccs3)n1C)oc1ccccc12	7.0	4	-2.5%	-28%	-16%	6	-44%[inhibitor]
Cc1noc(C)c1CN1C(=O)NC(Cc2ccccc2)(Cc2ccccc2)C1=O	-0.3	-6	1.1%	0%	6%	10	-13%
Cc1ccc(-c2nc3[nH]c(=O)cc(NC(=O)c4cccs4)n3n2)cc1	8.4	/	2.1%	-13%	9%	30	?
Nc1cccc(NC(=O)c2ccco2)c1	0.9	-2	/	-5%	13%	-14	-4%
COc1cccc(-c2nn(C)c3sc(C(=O)Nc4ccc5c(c4)OCCO5)cc23)c1	0.6	7	-24%	-17%	22%	9	12%
COC(=O)C(OC(=O)c1ccc(OC)cc1)C(=O)OC	0.4	38	-2.5%	-31%	18%	3	-20%
CCOc1ccc(CN(Cc2ccco2)S(=O)(=O)c2ccc(-n3cnnn3)c(OC)c2)cc1	4.7	5	-1.0%	3%	16%	-3	-18%
CCCc1cc(-c2n[nH]c(=S)n2-c2cccc(C)c2)cs1	-1.2	0	/	/	?	14	-4%[15.4 µM]
CCN(CC(=O)Nc1c(F)cccc1F)C(=O)c1ccc(S(=O)(=O)NCc2ccco2)cc1	/	31	-9.3%	7%	/	0	?
CC(C)(C)C(=O)N1CCN(c2nc3ccccc3s2)CC1	3.6	18	-1.5%	-1%	16%	-9	-26%
O=C(Nc1ccccc1F)NC1CCCCCCC1	2.0	-1	-0.5%	-7%	12%	-7	8%
CCCCN(C(=O)c1cccc(S(=O)(=O)N(C)c2ccc(C)cc2)c1)c1c(N)n(CC(C)C)c(=O)[nH]c1=O	/	-9	-2.6%	0%	/	/	37%
CN(C(=O)COC(=O)c1ccc(S(=O)(=O)N2CCCCCC2)cc1)c1ccccc1	/	-8	-0.8%	/	/	/	-48%
O=C(O)CC1(CC(=O)Nc2ccccc2N2CCOCC2)CCCC1	4.9	-3	/	-1%	7%	15	3%[15.4 µM]
CCCC/C(=N\NC(=O)c1ccc(Br)o1)c1ccccc1	-5.8	5	1.6%	-16%	15%	-13	1%[15.4 µM]
Cc1cc(NCCCO)n2c(nc3ccccc32)c1C#N	8.4	-4	/	3%	10%	3	?
O=C(O)CCN1c2ccccc2Sc2ccccc21	-4.1	0	-3.7%	-16%	17%	8	29%
COc1cc(C(=O)N(C)c2nnc(-c3cccnc3)s2)cc(OC)c1OC	-1.5	/	/	/	19%	-8	/
CC(O)C(NS(=O)(=O)c1ccc(Cl)cc1)C(=O)OCC(=O)c1c[nH]c2ccccc12 (stereo not given)	-0.3	7	/	-23%	20%	?	-3%[15.4 µM]
(cont.)
SMILES	Menin-MLL FL inh	TRPML1 blocker	ClpP mod	gsp antagonist	Sfp PPTase inh	TRPV1 potentiator	gsp agonist
CC(=NNC(=S)Nc1cccc(Cl)c1)c1ccccn1	/	14	-5.4%	-9%	/	/	13%
COC(=O)c1ccc(C(=O)Nc2ccc3c(c2)C(=O)NC3=O)cc1	-9.3	5	/	0%	11%	-17	-54%[inhibitor]
CN(C)/C=N/c1c(C(=O)NCc2ccccc2)nnn1Cc1ccccc1	2.3	16	1.6%	2%	15%	-3	12%
CNC(=O)Nc1cccc(-c2ccnc(C)n2)c1	-5.5	17	0.6%	13%	2%	25	8%[15.4 µM]
CC(C)(C)c1cc(CCC(=O)NCc2ccccn2)cc(C(C)(C)C)c1O	/	9	-3.0%	-2%	7%	-11	?
O=C(Nc1ccc2oc(Cc3ccc(Cl)cc3)nc2c1)c1cccnc1	1.1	-5	0.9%	-13%	11%	1	?
CCC(C)NS(=O)(=O)c1ccc(NC(=O)c2cccs2)cc1 (stereo not given)	-1.7	13	-19%	14%	17%	-12	26%

Compound activity deposited in PubChem by National Center for Advancing Translational Sciences (NCATS).
